Screens deposited in PubChem BioAssay by several laboratories.
HNF4A DNA FP – change in binding of human HNF4A to DNA, primary screen, biochemical, fluorescence polarization, FITC-DNA; Hepatocyte nuclear factor 4-alpha (Homo sapiens), P41235; 1 h; activity change, % at 10 µM; 360,000 tested, 0.3% active; AID 1224865, 2016; in the data active means activity change above about 30%, passing the limit was not always enough;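 further: controls were the assay level and a saturating level of protein; the project sought stronger binding though the title names inhibitors; some compounds called inactive have numbers as strong as hits; positive values seem to mean higher polarization but the record does not say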
Target sequence (P41235 whole entry, looked up): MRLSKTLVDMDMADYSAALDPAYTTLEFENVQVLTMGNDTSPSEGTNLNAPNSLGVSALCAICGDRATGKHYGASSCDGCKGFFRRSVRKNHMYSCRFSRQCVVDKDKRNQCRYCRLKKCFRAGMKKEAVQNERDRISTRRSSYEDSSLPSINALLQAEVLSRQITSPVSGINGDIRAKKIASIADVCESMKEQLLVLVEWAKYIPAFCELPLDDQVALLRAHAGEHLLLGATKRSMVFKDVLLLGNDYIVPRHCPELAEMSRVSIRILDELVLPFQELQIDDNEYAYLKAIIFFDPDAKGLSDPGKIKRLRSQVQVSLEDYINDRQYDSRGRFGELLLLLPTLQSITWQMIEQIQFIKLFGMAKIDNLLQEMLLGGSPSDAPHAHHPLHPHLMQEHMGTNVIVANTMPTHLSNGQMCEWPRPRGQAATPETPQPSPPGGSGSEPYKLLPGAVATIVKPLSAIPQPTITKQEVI
Ecoli growth – E. coli growth inhibition, primary screen, OD600 | Escherichia coli growth, 23 h; hits give low values | OD600 absorbance (no concentration beside the values) | 330,000 tested, 0.21% active | AID 1053175, 2014;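 active means OD600 absorbance below the run mean of sample wells minus 3.6 SD, in any replicate, cut at about 0.56 in these data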;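 further: stock transfer was 300 nL into about 60 µL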
A1 inh – caspase 3/7 activation in MEF A1-2A-BIM cells, primary screen, A1 inhibitor project, cell-based, luminescence, HTS; Caspase-Glo 3/7 luminescence, 3 h; percent of clofoctol response, vehicle zero; caspase activation, % (concentration not given with the values); 330,000 tested, 0.066% active;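 active means over half of replicate activation scores above 10%, or exactly half above 10 with the replicate mean above 10; inconclusive means replicate mean below 10 yet half the replicates above 10; inactive means over half of replicates below 10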;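 further: wells of about 30 µL received 50 nL stock; many hits fall short of the cut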
Beta2AR agonist – beta2AR agonists driving receptor internalization, primary screen, cell-based, FAP fluorogen, flow cytometry | Am2.2-beta2AR cells; reference of the scale not given here | response, % (concentration not given with the values) | 340,000 tested, 0.43% active | Beta-2 adrenergic receptor (Homo sapiens), P07550;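 active means response above a set limit, near 3 SD of response in nonfluorescent compounds, cut at about 42% in these data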;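 further: stock transfer was 100 nL into about 11 µL; a reference agonist was the positive control; negative values mostly stem from fluorescent compounds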
Target sequence (P07550 whole entry, looked up): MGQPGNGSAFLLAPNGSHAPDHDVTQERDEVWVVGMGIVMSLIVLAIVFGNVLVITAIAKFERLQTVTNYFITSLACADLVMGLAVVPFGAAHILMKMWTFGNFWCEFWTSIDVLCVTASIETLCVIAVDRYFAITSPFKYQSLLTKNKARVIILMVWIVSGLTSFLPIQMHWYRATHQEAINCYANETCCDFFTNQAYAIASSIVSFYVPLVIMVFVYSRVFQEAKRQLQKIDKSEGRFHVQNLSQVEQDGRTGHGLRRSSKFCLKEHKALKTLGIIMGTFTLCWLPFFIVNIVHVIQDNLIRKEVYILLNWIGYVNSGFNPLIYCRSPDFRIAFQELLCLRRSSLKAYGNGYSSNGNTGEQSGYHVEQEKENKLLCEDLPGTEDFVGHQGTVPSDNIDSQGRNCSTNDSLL
UCH37 inh – inhibitors of human UCH37 deubiquitinase, primary screen, biochemical, Ub-AMC cleavage, fluorescence; Ubiquitin carboxyl-terminal hydrolase isozyme L5 (Homo sapiens), Q9Y5K5; purified proteasome/UCH37; inhibition, % (concentration not given with the values); 330,000 tested, 0.33% active; AID 588478, 2011;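 active means mean of two replicates above 20%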;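 further: 0% = compound-free wells with enzyme and 100% = wells lacking proteasome; stock transfer was 100 nL into about 20 µL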
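system = Proteasome-associated human UCH37 deubiquitinase | amount = 0.15 nM proteasome as dispensed | medium = pH 7.4 Tris-HCl (50 mM) with ovalbumin, ATP-MgCl2, DTT | incubation = 30 min preincubation with enzyme, 25 min cleavage at room temperature | detection = AMC fluorescence 355/460 nm | read-out basis = percent inhibition | controls = no-proteasome and no-compound wells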
Vif TR-FRET – inhibitors of Vif binding to APOBEC3G peptide, primary screen, biochemical, TR-FRET, GST-Vif 1-94, biotin-A3G peptide, dose response retest (AID 1117319). Virion infectivity factor (Human immunodeficiency virus type 1 group M subtype B (isolate …. TR-FRET GST-Vif / biotin-A3G peptide binding; higher % means a stronger effect; test concentration not given here; strong numbers were not always called active. inhibition, %, or IC50 in µM where a hit was titrated. 260,000 tested, 0.57% active;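 active means above the screen mean plus three standard deviations and confirmed in dose response; inconclusive means results disagree or hit not tested in dose response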;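 further: Vif residues 1-94 fused to GST binding biotinylated APOBEC3G peptide 110-148; 0% = full assay without inhibitor and 100% = GST in place of GST-Vif; retest series ran down from 100 µM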
LANA-H2A inh – blockers of LANA interaction with H2A/H2B – biochemical, FP readout, HTS, primary screen; Protein LANA1 (Human herpesvirus 8 type P (isolate GK18)), Q9QR71; cell-free LANA-H2A/H2B peptide, fluorescence polarization; inhibition, % (concentration not given with the values); 320,000 tested, 0.6% active; AID 2629, 2010; in the data active means inhibition mostly above about 10%, no sharp cut-off; inactive means mostly below about 6.7%;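 further: stock transfer was 7.5 nL into about 10 µL; 0% = median of vehicle wells and 100% = median of positive control wells; one replicate is shown; the record names a cut of 25% in any replicate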
* marks the source's active call; other numbers are inactive results; u = inconclusive; x = not tested or not shown; & = joins results of further samples. The order is random (roughly 2.1% active in at least one column).

SMILES	HNF4A DNA FP	Ecoli growth	A1 inh	Beta2AR agonist	UCH37 inh	Vif TR-FRET	LANA-H2A inh
COCCN(C(=O)c1cc(Cl)ccn1)c1c(N)n(Cc2ccccc2)c(=O)[nH]c1=O	2.2	0.66	x	-2	1.1	x	x
CC(C)CCOc1ccc(/C=C2\CCn3c2nc2cc(C(=O)O)ccc2c3=O)cc1	-1.5	0.71	x	17	-117	22%	x
CCOC(=O)C1=C(CSc2nc3ccccc3s2)NC(=O)NC1c1cccc([N+](=O)[O-])c1 (stereo not drawn)	-3.3	0.74	1.8	-12	1.1	-1%	1.9
COCCN(C(=O)COC(=O)c1ccccc1Nc1ccccc1)c1c(N)n(Cc2ccccc2)c(=O)[nH]c1=O	-3.1	0.62	-0.6	8	-8.3	-8%	-0.2
CC(=O)Nc1nc(C=C(Cl)Cl)cs1	2.8	0.66	-0.2	-2	3.6	16%	0.3
Cc1ccc(-n2nc(C(=O)NN)c(C)c(C#N)c2=O)cc1Cl	3.5	x	0.7	-1	x	-2%	5.0
CC(C)Nc1nc(Cl)nc(NNC(=O)C(C)Oc2ccccc2)n1 (stereo not drawn)	-2.9	0.74	1.0	1	1.3	20%	1.7
O=C(CCCC1=NS(=O)(=O)c2ccccc2N1)N1CCN(c2ccccc2)CC1	-0.7	0.72	0.2	12	4.3	-4%	-5.8
O=C(NCC1CCCO1)c1ccccc1 (stereo not drawn)	1.0	0.71	1.5	0	1.3	-4%	-6.0
O=C(CNC(=S)N(Cc1ccccc1F)C1CCCCC1)NC1CC1	0.4	0.67	0.3	-7	2.5	-1%	8.9
N#CCC(=N)N1CCN(c2cccc(Cl)c2)CC1	2.3	0.7	0.4	-6	7.0	1%	-1.9
CC(C)(C)NC(=O)NC(=O)CN1CCN(c2ccccc2O)CC1	-1.2	0.69	0.1	-3	1.8	-4%	-4.7
CC1CCC2(CC1)NC(=O)N(Cc1cc(=O)n3ccsc3n1)C2=O (stereo not drawn)	x	0.72	-0.6	x	1.7	x	-3.8
COc1ccc(C(=O)N2c3ccccc3C(=O)OC2c2ccc3c(c2)OCO3)cc1 (stereo not drawn)	0.6	0.72	-9.9	6	1.0	7%	-6.0
CCn1c(SCC(=O)NNC(=O)c2ccc(OC)cc2)nnc1-c1ccco1	-1.1	0.67	0.2	-5	4.4	0%	-1.9
O=C(NN1CCOCC1)c1cc(-c2ccc(Cl)c(Cl)c2)nc2ccccc12	-1.2	0.65	0.3	11	1.4	-15%	3.1
Cc1ccc(S(=O)(=O)N2CCOCC2)cc1C(=O)Nc1ccncc1	2.3	0.66	1.6	-8	3.0	7%	4.1
CN(C(=O)c1cc2n(n1)C(C(F)(F)F)CC(c1ccco1)N2)c1ccc(OC(F)(F)F)cc1 (stereo not drawn)	5.9	0.67	1.3	2	0.1	-9%&0%	1.8
O=c1nccc(N/N=C/c2ccccc2O)[nH]1	0.6	x	-13	-5	x	-4%	1.3
O=C(NCCN1CCOCC1)c1ccc(N2CCCC2)c([N+](=O)[O-])c1	-2.9	0.69	0.9	-8	2.1	2%	-3.6
CCC(c1nnnn1CCOC)N(Cc1cc2c(C)cc(C)cc2[nH]c1=O)CC1CCCO1 (stereo not drawn)	-2.2	0.69	0.3	-2	-2.5	1%	-1.1
Cc1ccc(C)c(N2CCN(C(=O)c3cn(C)c4ccc(S(=O)(=O)N(C)C)cc4c3=O)CC2)c1	-0.7	0.66	0.4	2	3.7	-6%	-1.4
CCOc1ccccc1NC(=O)N1CCC(NC(=O)c2ccccc2C)CC1	-1.8	0.69	-0.7	-2	6.1	21%	-3.4
CC(=O)Nc1ccc(/C=C(\C#N)C(=O)NC2CCCCC2)cc1	-1.6	0.64	-0.3	4	4.1	8%	-6.9
O=S(=O)(Nc1ncccn1)c1ccc(Cl)cc1	0.9	0.65	-0.2	3	2.8	x	-3.3
Cc1cc(C)n2nc(SCC(=O)N3CCc4ccccc43)nc2n1	2.8	0.67	0.0	-2	3.1	-7%	-1.8
CCOC(=O)Nc1ccc2c(c1)N(C(=O)CCCl)c1ccccc1[S@]2=O	-3.5	0.71	-0.4	9	6.2	x	-4.3
O=C(O)CCCNS(=O)(=O)c1ccccc1	-0.9	0.75	0.8	1	-1.1	14%	5.5
CNC(=O)c1[nH]cnc1C(=O)N[C@@H](CCCCNC(=O)OC(C)(C)C)C(=O)OC(C)(C)C	-1.4	x	0.4	-11	-0.2	7%	0.5
CON1C(=O)C(=O)N(OC)C(C)(C)C1C (stereo not drawn)	-5.8	0.68	0.1	-5	5.6	-4%	0.5
O=C(O)CCCC(=O)Nc1ccc(Br)cc1C(=O)O	0.8	0.7	0.1	-5	2.1	u	3.6
C#CCNC(=O)C1=C[C@H](C(C)(C)C)C[C@H](OCc2ccc(CO)cc2)O1	-3.6	x	-0.5	-17	0.4	x	-3.8
CN(/N=C/Cc1nnnn1-c1ccc(Cl)cc1)c1ccccc1	3.7	x	u	-3	x	2%	3.5
Nc1ccc(C(=O)n2c3ccccc3c3ccccc32)cc1	1.6	0.72	0.1	13	28*	-4%	1.7
COC1=CCC2([N+](=O)[O-])CN(CC(=O)O)CC1([N+](=O)[O-])C2 (stereo not drawn)	1.3	0.65	1.2	2	3.2	-2%	0.6
CN1CCN(C2CCCCC2NS(=O)(=O)c2ccccc2)CC1 (stereo not drawn)	2.5	0.64	1.7	7	2.7	x	15
CC(=O)Nc1ccc(S(=O)(=O)N2CCN(Cc3ccccn3)CC2)cc1	1.2	0.73	0.9	-5	-1.7	77µM*	5.2
CCCn1nc(NC(=O)C2CCCO2)c2cc3ccc(C)cc3nc21 (stereo not drawn)	-1.6	0.69	-0.2	7	-93	-8%	-0.8
O=C(CCCCn1c(=O)c2ccccc2n(Cc2ccc(F)cc2Cl)c1=O)NCc1ccco1	-1.4	0.71	-0.4	-10	4.3	11%&7%	4.2
Cn1cc2cc(NC(N)=S)ccc2n1	5.3	0.69	0.6	-5	-1.1	-6%	-3.0
COCCCNC(=O)c1ccc(Cn2c(=O)c3ccccc3n(Cc3ccccc3C#N)c2=O)cc1	-2.6	0.72	0.3	0	4.3	7%	-2.6
O=C1CC(c2ccc(S(=O)(=O)NCc3ccccc3)cc2)CN1 (stereo not drawn)	4.5	0.77	-0.1	4	1.5	7%	1.2
CCOC(=O)c1sc(=S)n(CC)c1NC(=O)c1ccccc1C	-2.8	0.71	0.4	1	7.1	-1%	-1.2
COC(=O)c1ccc(-n2nnnc2SCc2ccccc2OC)cc1	2.5	0.7	0.1	-10	3.8	-9%	-3.2
COc1ccc(/C=N/NC(=O)C(C)n2cnc3ccccc3c2=O)cc1 (stereo not drawn)	3.8	x	-0.2	-7	x	10%	2.9
CCOc1ccc(/C=N/NC(=O)c2ccccc2O)cc1CN1CC2CC(C1)c1cccc(=O)n1C2 (stereo not drawn)	-2.1	x	0.5	1	x	x	-3.7
COc1ccc(OC)c(CN2CCN(CCCc3ccccc3)C(CCO)C2)c1 (stereo not drawn)	-0.3	0.66	0.3	9	-3.2	x	-0.2
O=C(Nc1ccc(-c2csc(-c3ccccc3)n2)cc1)c1ccccc1Cl	1.2	0.71	0.5	0	-6.0	0%	4.7
C=CCc1cccc(/C=N/NC(=O)CNc2cccc3ccccc23)c1O	-4.5	x	0.0	6	x	x	5.0
C/C(=N/N=C1/NC(=O)CC(C(=O)Nc2ccccc2)S1)c1cccs1 (stereo not drawn)	1.0	x	0.8	-2	x	27%	0.5
O=S(=O)(c1ccc(N2CCN(Cc3ccc4c(c3)OCO4)CC2)nc1)N1CCOCC1	x	0.7	-1.1	x	0.6	20%	3.4
CCCn1c(N2CCN(CC(=O)c3c(C)n(C)c4ccc(OC)cc34)CC2)nc2c1c(=O)[nH]c(=O)n2C	5.0	0.69	x	1	6.5	1%	x
COc1ccc(N(C)S(=O)(=O)c2ccc3c(c2)NC(=O)CC(=O)N3)c(OC)c1	-1.0	0.61	0.7	0	1.7	x	-1.1
CC(C)c1nc(SCC(=O)c2ccccc2)c2c(=O)n(C)c(=O)n(C)c2n1	3.9	0.77	x	-2	5.9	-6%	-11
CCSc1ncnc2c(C#N)c3n(c12)CCCCC3	-1.8	0.77	-0.5	-7	2.1	-2%	-4.2
CN(C(=O)CSCC(=O)O)C1CCCCC1	1.6	0.65	-0.4	6	1.4	-8%	-2.7
COc1ccccc1CC(=O)Nc1ccc(S(=O)(=O)N2CC(C)CC(C)C2)cc1 (stereo not drawn)	1.0	0.7	1.6	4	4.0	x	-4.0
CCN1C(=NCc2ccc(OC)cc2)N[C@@H](c2ccccc2)C(C(=O)OC)=C1C	2.9	x	2.2	1	1.1	x	-2.5
CS(=O)(=O)c1ccc(C(=O)NCC2(N3CCCCC3)CCCCC2)cc1	1.1	0.63	-0.6	2	3.2	-3%	15
COc1cccc(C2=NO[C@@H]3C(=O)N(Cc4ccccc4)C(=O)[C@H]23)c1OC	4.7	0.74	1.1	-3	1.5	-4%	-2.3
(listing goes on)
SMILES	HNF4A DNA FP	Ecoli growth	A1 inh	Beta2AR agonist	UCH37 inh	Vif TR-FRET	LANA-H2A inh
Cc1ccc2c(CN3CC(C)CC(C)C3)cc(=O)oc2c1C (stereo not drawn)	-0.7	0.65	-0.8	-9	0.6	-1%	-0.2
Cc1ccc(S(=O)(=O)NCc2ccccc2)cc1C(=O)NC(C)c1ccc(S(N)(=O)=O)cc1 (stereo not drawn)	1.9	0.68	x	-5	-0.4	5%	x
Cc1ccccc1NS(=O)(=O)c1cc(C(=O)NCCC2=CCCCC2)ccc1Cl	3.3	0.67	-1.0	13	55*	-2%	-6.2
CCOc1ccc(NC(=O)CSc2nc3c(c(=O)n2-c2ccccc2OC)SCC3)cc1	-0.4	0.64	-0.2	-1	2.3	x	-1.5
COc1ccc(S(=O)(=O)N(CC(=O)NCC2CCCO2)Cc2ccccc2)cc1 (stereo not drawn)	5.3	0.67	-0.3	6	-0.9	-10%	5.0
Cc1c(C)c2ccc(OCC(=O)NCCCN3CCCC3=O)cc2oc1=O	-0.3	0.7	2.8	2	-139	-13%	4.6
O=C(OCc1ccccc1)c1cnc(Cl)c(Cl)c1	1.2	0.7	0.8	1	1.7	x	0.2
O=C1N(c2ccccc2)CCN1c1ccccc1	-2.9	0.65	-10	-3	2.8	0%	0.6
Cc1sc(NC(=O)/C=C/C(=O)O)c(C(N)=O)c1-c1ccc(C(C)(C)C)cc1	-2.0	0.7	0.1	12	8.3	4%	5.2

Some of these compounds in order of formula weight, falling:
SMILES	HNF4A DNA FP	Ecoli growth	A1 inh	Beta2AR agonist	UCH37 inh	Vif TR-FRET	LANA-H2A inh
Cc1ccc(S(=O)(=O)NCc2ccccc2)cc1C(=O)NC(C)c1ccc(S(N)(=O)=O)cc1 (stereo not drawn)	1.9	0.68	x	-5	-0.4	5%	x
Cc1ccccc1NS(=O)(=O)c1cc(C(=O)NCCC2=CCCCC2)ccc1Cl	3.3	0.67	-1.0	13	55*	-2%	-6.2
Cc1c(C)c2ccc(OCC(=O)NCCCN3CCCC3=O)cc2oc1=O	-0.3	0.7	2.8	2	-139	-13%	4.6
O=C1N(c2ccccc2)CCN1c1ccccc1	-2.9	0.65	-10	-3	2.8	0%	0.6
